INS promoter inh: TRM-6 insulin promoter activity inhibition. AID 1273. inhibition, % at 2 µM. TRM-6 cells (human fetal islet line), insulin promoter-eGFP reporter, imaging; reporter expression induced with tamoxifen. hit rate 0.9% among 130,000;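 active = inhibition above the mean plus 3 SD, with well images judged a real hit on visual review, cut at about 60% in these data, passing the limit was not always enough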
PKD1 inh: inhibitors of human PKD1 kinase. hit rate 0.056% among 200,000. inhibition, %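 (about 10 µM by stock and volumes)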. Q15139. AID 797. PKD1 kinase fluorescence polarization assay;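 active = inhibition of 50% or more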;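 note: controls were vehicle for no effect and a reference inhibitor for full effect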
Target sequence (Q15139 whole entry, looked up): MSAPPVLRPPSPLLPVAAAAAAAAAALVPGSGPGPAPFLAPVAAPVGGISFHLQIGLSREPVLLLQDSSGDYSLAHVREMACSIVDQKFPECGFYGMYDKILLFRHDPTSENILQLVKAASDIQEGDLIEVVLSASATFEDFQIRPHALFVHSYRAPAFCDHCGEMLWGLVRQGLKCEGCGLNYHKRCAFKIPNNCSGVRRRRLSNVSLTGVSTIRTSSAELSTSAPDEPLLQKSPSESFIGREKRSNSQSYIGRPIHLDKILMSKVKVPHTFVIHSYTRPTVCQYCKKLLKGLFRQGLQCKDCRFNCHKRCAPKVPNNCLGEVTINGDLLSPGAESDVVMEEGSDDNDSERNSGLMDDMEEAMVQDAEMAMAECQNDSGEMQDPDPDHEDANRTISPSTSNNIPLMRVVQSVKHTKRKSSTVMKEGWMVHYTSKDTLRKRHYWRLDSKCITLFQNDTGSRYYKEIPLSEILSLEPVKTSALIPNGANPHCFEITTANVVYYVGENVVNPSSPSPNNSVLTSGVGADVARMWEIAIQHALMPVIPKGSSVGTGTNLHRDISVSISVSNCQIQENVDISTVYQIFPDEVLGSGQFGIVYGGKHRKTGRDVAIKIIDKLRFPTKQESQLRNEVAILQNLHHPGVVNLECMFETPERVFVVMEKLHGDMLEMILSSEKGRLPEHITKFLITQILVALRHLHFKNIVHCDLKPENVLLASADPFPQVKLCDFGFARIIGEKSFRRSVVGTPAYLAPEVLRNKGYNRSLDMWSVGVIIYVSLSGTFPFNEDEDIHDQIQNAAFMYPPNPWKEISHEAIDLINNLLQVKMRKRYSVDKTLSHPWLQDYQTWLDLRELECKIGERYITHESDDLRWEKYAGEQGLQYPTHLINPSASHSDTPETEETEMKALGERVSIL
RGS16-Gao: RGS16-Galphao interaction regulator (human). O15492+P09471. hit rate 0.38% among 220,000. binding response (% of control), % at 10 µM. bead-based flow cytometry RGS16-Galphao binding, fluorescence; actives lie on both sides;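 active = below 25% or above 175%, edge rows of some plates excepted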;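 note: Galphao activated by GDP with aluminum fluoride before binding; 100% = wells without compound and 0% = beads without RGS; some results beyond the cut were filed as inactive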
HSV augment: increases HSV replication in cells | maximum fold increase | HSV replication augmentation in cells, fold increase | hit rate 0.005% among 220,000;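 active = peak rise of 1.5-fold or more in the series; tested in PC3 cells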;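 note: first round at 10 µM; read as green reporter fluorescence; hits show the peak of a series up to 25 µM; 1 = signal of infected wells without compound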
GALR2 agonist: agonists of human galanin receptor 2 (GALR2); hit rate 0.48% among 140,000; GALR2-expressing cells, agonist activation read-out; O43603; activation, %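 (tested at 5 µM)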;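 active = above mean plus 3 SD of all compounds, about 5% in these data, not always enough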;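 note: 0% = vehicle buffer wells and 100% = reference agonist at full effect; tested in CHO reporter cells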
INS promoter inh cell count: recorded beside INS promoter inh, whose call it bears; normalized cell count, %; measured here: cell count, toxicity; reference of the scale not given here;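 cells exposed to compound for 48 h; stained nuclei by imaging scaled within each plate; lower means fewer cells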
HSV augment primary fold: further read-out of HSV augment, marked with its call; fold increase; compound at 10 µM; measured here: primary screen fold increase 10 uM; tested in PC3 cells;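 GFP signal in the first replicate; 1 = infected wells without compound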
* = called active by the depositor; i = inactive; . = no result given; & = joins results of further samples.

# | SMILES | HSV augment primary fold | INS promoter inh | PKD1 inh | GALR2 agonist
1 | CC(NCc1ccc(F)cc1)C(=O)Nc1cc(S(=O)(=O)N2CCCCC2)ccc1Cl (configuration not stated) | 0.89 | . | 8 | .
2 | Cn1cc(Br)c(C(=O)Nc2sc3c(c2C(N)=O)CCC3)n1 | 0.94 | -23 | 3 | -2.0
3 | Cc1ccc(S(=O)(=O)[N-]c2nc3ccccc3nc2-n2cc[n+](Cc3ccccc3)c2)cc1 | 0.92 | . | . | .
4 | O=C(CN1C(=O)c2ccccc2C1=O)NCC(=O)OCC(=O)c1cccc([N+](=O)[O-])c1 | 1.1 | 7 | -7 | .
5 | Cc1cccc(N2CCN(C(=O)c3ccc(CS(=O)(=O)c4ccccc4C)o3)CC2C)c1 (configuration not stated) | 0.57 | . | -6 | 3.6
6 | O=C(O)c1cccc(S(=O)(=O)Nc2ccccc2N2CCOCC2)c1 | 1 | . | . | .
7 | CC1(C)CC(=O)C(C=Nc2ccccc2Sc2ccccc2)=C(O)C1 | 0.83 | 38 | 4 | -1.4
8 | O=C(Nc1ccc2c(c1)OCO2)N1CCN(c2ccccc2Cl)CC1 | 0.8 | -42 | 6 | 2.3

# | INS promoter inh cell count | RGS16-Gao | HSV augment
1 | . | 106 | i
2 | 112 | 96 | i
3 | . | 107 | i
4 | 80 | 101 | i
5 | . | 79 | i
6 | . | 104 | i
7 | 124 | 91 | i
8 | 91 | 100 | i

Other entries follow.
# | SMILES | HSV augment primary fold | INS promoter inh | PKD1 inh | GALR2 agonist
9 | Cn1cccc1Cc1nnc(SCC(=O)NC2CCCCC2)n1-c1ccc(F)cc1 | 0.84 | . | -5 | -4.3
10 | CC12CCCCC1N(O)C(=O)C(=O)N2O (configuration not stated) | 1.1 | . | 0 | -1.1
11 | CC1CCCN(C(=O)CN2C(=O)c3ccccc3C2=O)C1 (configuration not stated) | 0.75 | -9 | -3 | 1.1
12 | CCC(=O)N1CCc2cc(S(=O)(=O)NCCCN3CCN(Cc4ccccc4)CC3)ccc21 | . | -43 | -7 | -1.6
13 | Cc1[nH]c2ccccc2c1/C=N/NS(=O)(=O)c1ccccc1 | 1.1 | -36 | -6 | .
14 | Cc1cc(NC(=O)CCC(=O)N(c2ccc(F)cc2)C(C(=O)NC2CCCC2)c2ccncc2)no1 (configuration not stated) | . | 21 | -6 | -1.2
15 | O=c1c2ccccc2nc2n1CCCCN2 | 0.94 | -67 | -1 | -1.7
16 | O=C(c1cccs1)N(CCO)Cc1cc2cc3c(cc2[nH]c1=O)OCCO3 | 0.93 | . | 16 | -0.9

# | INS promoter inh cell count | RGS16-Gao | HSV augment
9 | . | 100 | i
10 | . | 54 | i
11 | 95 | 103 | i
12 | 72 | 98 | .
13 | 71 | 100 | i
14 | 70 | 92 | .
15 | 83 | 106 | i
16 | . | 72 | i

(more compounds)
# | SMILES | HSV augment primary fold | INS promoter inh | PKD1 inh | GALR2 agonist
17 | Cc1ccc(-c2ccc(CCC(=O)O)o2)cc1 | 1 | -29 | -2 | -1.0
18 | Fc1ccc(-c2csc(NC3=NCCC3)n2)cc1 | 0.76 | . | -1 | .
19 | CN(Cc1cccnc1)C(=O)CC1C(=O)NCCN1CC(c1ccccc1)c1ccccc1 (configuration not stated) | 0.96 | -67 | 3 | .
20 | CCCCCC1CCC(c2ccc(/C(N)=N/O)cc2)CC1 (configuration not stated) | 0.92 | . | . | .
21 | O=C(Nc1ccc(N2CCOCC2)cc1)c1cc(F)c(F)cc1Cl | . | -46 | -7 | -1.4
22 | Nc1nnc(SCC(=O)N2CCN(c3ccccc3)CC2)s1 | 0.88 | . | 6 | -2.9
23 | CCc1ccc(NC(=O)N(Cc2cccnc2)Cc2ccco2)cc1 | 0.73 | -36 | 1 | -2.1
24 | CCCc1cc(=O)[nH]c(SCC(=O)c2ccc(S(=O)(=O)N3CCCC3)cc2)n1 | 1 | . | 6 | -1.7

# | INS promoter inh cell count | RGS16-Gao | HSV augment
17 | 181 | 88 | i
18 | . | 107 | i
19 | 93 | 146 | i
20 | . | 85 | i
21 | 94 | 106 | .
22 | . | 103 | i
23 | 95 | 76 | i
24 | . | 100 | i

The results go on.
# | SMILES | HSV augment primary fold | INS promoter inh | PKD1 inh | GALR2 agonist
25 | O=C(NCc1ccccn1)c1cn(Cc2ccccc2)nn1 | 0.94 | -35 | 7 | -1.1
26 | COC(=O)CN1C(c2ccc(Cl)cc2)=Nc2ccc(Cl)cc2C1c1ccccc1 (configuration not stated) | 1.1 | . | 5 | -2.1
27 | C=C(C)c1ccc(C(C)(C)NC(=O)N2CCN(C)CC2)cc1 | 0.9 | . | -2 | 0.2
28 | Cc1ccc(Sc2ccc(C(=O)N(C)C)cc2[N+](=O)[O-])cc1 | 0.86 | . | -3 | .
29 | CSc1ccccc1NC(=O)COC(=O)c1ccc(O)cc1 | 0.9 | -31 | -4 | .
30 | Cc1ccc2cc3c(NC(=O)c4cccnc4)nn(C)c3nc2c1 | 1 | 34 | -6 | -0.2
31 | O=C(CSc1ncc(C(=O)O)n1-c1ccc(F)cc1)NCc1ccc2c(c1)OCO2 | 0.86 | . | 7 | .
32 | CNC(=S)N/N=C/c1cn(Cc2ccc(C)cc2)c2ccccc12 | 0.79 | 13 | -5 | -1.5

# | INS promoter inh cell count | RGS16-Gao | HSV augment
25 | 120 | 113 | i
26 | . | 109 | i
27 | . | 94 | i
28 | . | 90 | i
29 | 146 | 93 | i
30 | 75 | 102 | i
31 | . | 99 | i
32 | 83 | 130 | i

New compounds follow
# | SMILES | HSV augment primary fold | INS promoter inh | PKD1 inh | GALR2 agonist
33 | Cn1cc(C=O)c2cc(F)ccc21 | 0.94 | -20 | 2 | .
34 | Cn1nc(-c2ccccc2)cc1NC(=O)Nc1ccccc1F | 0.78 | . | . | .
35 | CCOC(=O)C(=O)N1CCN(CC)CC1 | 0.91 | -25 | -6 | -1.3
36 | O=C(O)CCCCC1SCC2NC(=O)NC21 (configuration not stated) | 1 | . | -2 | -2.7
37 | CC(C)(C)NC(=O)C(c1ccncc1)N(C(=O)Cn1nnc(-c2ccc(F)cc2)n1)c1ccccc1 (configuration not stated) | 0.94 | 0 | 7 | .
38 | O=S(=O)(NCc1cc(-c2ccccc2Cl)no1)c1ccc(Cl)cc1 | 1 | -22 | -19 | -2.3
39 | CC(C)(C)C1CCc2nc(NC(=O)Cc3cn4ccsc4n3)sc2C1 (configuration not stated) | 0.95 | 26 | -10 | -0.4
40 | COc1ccc(NC(=O)C(c2ccc(OC)cc2)N(C)C(=O)c2cnccn2)cc1 (configuration not stated) | 1 | . | -2 | -1.6

# | INS promoter inh cell count | RGS16-Gao | HSV augment
33 | 101 | 134 | i
34 | . | 116 | i
35 | 131 | 102 | i
36 | . | 100&119 | i
37 | 100 | 101 | i
38 | 90 | 99 | i
39 | 66 | 104 | i
40 | . | 99 | i

Overlap with the part before: 3 entries; new compounds follow.
# | SMILES | HSV augment primary fold | INS promoter inh | PKD1 inh | GALR2 agonist
38 | O=S(=O)(NCc1cc(-c2ccccc2Cl)no1)c1ccc(Cl)cc1 | 1 | -22 | -19 | -2.3
39 | CC(C)(C)C1CCc2nc(NC(=O)Cc3cn4ccsc4n3)sc2C1 (configuration not stated) | 0.95 | 26 | -10 | -0.4
40 | COc1ccc(NC(=O)C(c2ccc(OC)cc2)N(C)C(=O)c2cnccn2)cc1 (configuration not stated) | 1 | . | -2 | -1.6
41 | COC(=O)c1[nH]c2ccc(Br)cc2c1NC(=O)CN1CCCc2ccccc21 | 0.98 | -40 | 3 | -1.9
42 | CCCc1cc(=O)[nH]c(SCC(=O)Nc2ccc(C)cc2)n1 | 0.91 | . | -2 | .
43 | O=C(/C=C/c1ccccc1F)c1ccoc1 | 0.89 | -22 | -11 | -1.4
44 | COc1ccc(S(=O)(=O)Cc2ccc(C(=O)NCc3ccc(F)cc3)o2)cc1 | . | . | 0 | -3.3
45 | CCOC(=O)c1c(NC(=O)CSc2nnnn2-c2ccccc2)sc2c1CCC(C)C2 (configuration not stated) | 0.94 | -4 | 1 | -1.4
46 | COCCn1c(CN2CCN(c3cccc(Cl)c3)CC2)nc2c1c(=O)n(C)c(=O)n2C | 0.97 | . | -5 | -1.2
47 | COC(=O)c1ccccc1NC(=O)CSCC(=O)Nc1ccccc1 | 0.89 | 3 | 2 | -1.7
48 | CCn1c(CCNC(=O)c2cccs2)nnc1SCC(=O)Nc1cccc(Cl)c1 | 1.1 | -35 | -4 | -4.0

# | INS promoter inh cell count | RGS16-Gao | HSV augment
38 | 90 | 99 | i
39 | 66 | 104 | i
40 | . | 99 | i
41 | 66 | 104 | i
42 | . | 103 | i
43 | 70 | 98 | i
44 | . | 71 | .
45 | 150 | 105 | i
46 | . | 102 | i
47 | 122 | 100 | i
48 | 128 | 97 | i

4 compounds from above with just GALR2 agonist, HSV augment and INS promoter inh.
| no. | canonical_smiles | GALR2 agonist | HSV augment | INS promoter inh |
| --- | --- | --- | --- | --- |
| 43 | O=C(/C=C/c1ccccc1F)c1ccoc1 | -1.4 | i | -22 |
| 44 | COc1ccc(S(=O)(=O)Cc2ccc(C(=O)NCc3ccc(F)cc3)o2)cc1 | -3.3 | . | . |
| 45 | CCOC(=O)c1c(NC(=O)CSc2nnnn2-c2ccccc2)sc2c1CCC(C)C2 (configuration not stated) | -1.4 | i | -4 |
| 46 | COCCn1c(CN2CCN(c3cccc(Cl)c3)CC2)nc2c1c(=O)n(C)c(=O)n2C | -1.2 | i | . |

(list continues)
# | SMILES | HSV augment primary fold | INS promoter inh | PKD1 inh | GALR2 agonist
49 | Cc1cc(C)c(C(=O)Nc2cccc(F)c2)c(Cl)n1 | 1.1 | -41 | -6 | .
50 | Clc1ccc(CNc2nc(CN3CCOCC3)nc3scc(-c4ccccc4)c23)cc1 | 1 | 7 | 4 | -0.9
51 | Cc1nc(NC(=O)CCC(=O)O)sc1C(=O)N(C)C | 0.87 | . | -8 | -0.2
52 | CNC(=S)NC1CC2CCC(C1)N2Cc1ccccc1 (configuration not stated) | 0.76 | . | 5 | -1.9
53 | CN(C)S(=O)(=O)c1ccc2c(c1)c(=O)c(C(=O)N1CCN(c3ccccn3)CC1)cn2C | 0.75 | . | 12 | -1.6
54 | O=C(Nc1c(C(=O)N2CCCC2)cnn1-c1ccccc1)c1cccc(F)c1 | 0.62 | -226 | 0 | -1.5
55 | COc1cc(C(=O)N(Cc2ccccn2)CC2CCCO2)cc(OC)c1OC (configuration not stated) | 0.91 | -18 | 5 | -1.4
56 | Cc1cccc(C)c1NC(=S)NCCc1ccccn1 | 0.94 | -18 | -2 | -1.4

# | INS promoter inh cell count | RGS16-Gao | HSV augment
49 | 115 | 100 | i
50 | 66 | 107 | i
51 | . | 99 | i
52 | . | 108 | i
53 | . | 102 | i
54 | 73 | 75 | i
55 | 74 | 103 | i
56 | 105 | 101 | i

Following part.
# | SMILES | HSV augment primary fold | INS promoter inh | PKD1 inh | GALR2 agonist
57 | Cc1ccc(NC(=O)CN(C)C(=O)CSc2n[nH]c(N)n2)cc1 | 0.94 | -23 | 1 | -2.9
58 | CCOC(=O)C1CCCN(S(=O)(=O)c2cccc3cccnc23)C1 (configuration not stated) | 1 | 20 | -16 | -1.8
59 | COc1cccc(C(=O)N/N=C/c2ccc(OC3CSC3)cc2)c1 | 0.79 | -18 | -2 | -0.7
60 | C=CCn1c(O)c(C=Nc2ccccc2)sc1=S | 0.71 | . | -8 | .
61 | COc1ccc(-c2c(C(F)(F)F)oc3cc(OCC(=O)Nc4ccccc4C(F)(F)F)ccc3c2=O)cc1OC | 0.78 | . | -7 | -1.1
62 | Cc1cc(C(=O)OCC(=O)NCc2ccco2)c(C)o1 | 1.1 | 33 | 7 | .
63 | COc1ccc(N2CCN(c3nc(Cl)nc(N4CCOCC4)n3)CC2)cc1 | 1 | 29 | -3 | -1.4

# | INS promoter inh cell count | RGS16-Gao | HSV augment
57 | 58 | 101 | i
58 | 24 | 106 | i
59 | 55 | 74 | i
60 | . | 111 | i
61 | . | 97 | i
62 | 192 | 104 | i
63 | 110 | 27 | i

Quoted from the listing:
no. 61 in PKD1 inh reads -7
no. 58 in HSV augment primary fold reads 1
no. 62 in INS promoter inh cell count reads 192
no. 60 in HSV augment primary fold reads 0.71

Screening data as filed in PubChem.
